Screening data from PubChem BioAssay.
KCNQ2 enhance: potentiators of rat KCNQ2 potassium channel. Potassium voltage-gated channel subfamily KQT member 2 (Rattus norvegicus), O88943. CHO-K1 KCNQ2, FluxOR thallium flux fluorescence; stronger effect = higher value. B-score at 10 µM. 310,000 tested, 0.54% active. AID 2239, 2010;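 active = fluorescence ratio B-score at least 3 SD of library B-scores, with initial fluorescence B-score within 3 SD, cut at about 5.3 in these data; same plate scores as AID 2156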;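 note: B-score of peak minus minimum over baseline fluorescence ratio after K+ and Tl+ stimulus; positive B-score means potentiation of KCNQ2 with more thallium influx and brighter signal; only the inactives scoring about 0 or higher are listed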
Target sequence (O88943 whole entry, looked up): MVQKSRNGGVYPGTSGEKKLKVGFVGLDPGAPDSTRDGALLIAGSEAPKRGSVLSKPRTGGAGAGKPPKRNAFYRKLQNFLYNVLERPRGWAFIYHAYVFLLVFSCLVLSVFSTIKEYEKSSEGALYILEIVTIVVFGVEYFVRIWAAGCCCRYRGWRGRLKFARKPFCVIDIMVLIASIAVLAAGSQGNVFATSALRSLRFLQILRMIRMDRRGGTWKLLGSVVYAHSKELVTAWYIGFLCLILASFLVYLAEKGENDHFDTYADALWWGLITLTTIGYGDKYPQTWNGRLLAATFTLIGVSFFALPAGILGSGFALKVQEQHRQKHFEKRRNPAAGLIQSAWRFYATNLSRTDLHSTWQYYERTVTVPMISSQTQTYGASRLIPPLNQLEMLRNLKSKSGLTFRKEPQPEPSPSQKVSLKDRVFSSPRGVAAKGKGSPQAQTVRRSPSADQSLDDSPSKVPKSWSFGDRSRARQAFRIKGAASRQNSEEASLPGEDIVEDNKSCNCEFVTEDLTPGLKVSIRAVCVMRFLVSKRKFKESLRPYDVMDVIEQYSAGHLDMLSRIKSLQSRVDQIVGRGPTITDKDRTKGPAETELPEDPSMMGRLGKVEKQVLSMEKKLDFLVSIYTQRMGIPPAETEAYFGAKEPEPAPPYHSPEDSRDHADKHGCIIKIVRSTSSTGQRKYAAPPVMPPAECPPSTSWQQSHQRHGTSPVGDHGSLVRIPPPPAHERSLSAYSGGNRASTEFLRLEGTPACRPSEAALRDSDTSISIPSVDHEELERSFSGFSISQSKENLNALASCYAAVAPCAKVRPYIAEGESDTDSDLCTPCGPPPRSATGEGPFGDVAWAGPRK
KCNQ2 enhance baseline: further read-out of KCNQ2 enhance, marked with its call; B-score; compound at 10 µM; measured here: initial fluorescence intensity artifact check;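 brightness before thallium and not channel activity; 0 = typical well and far values either way flag optical interference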
* = called active by the depositor.

SMILES	KCNQ2 enhance	KCNQ2 enhance baseline
CCc1ccc2[nH]c(=O)c(CN(Cc3ccccc3)Cc3nnnn3Cc3ccco3)cc2c1	1.6	-0.41
CC(=O)Oc1ccc(C(=O)Nc2nnc(C)s2)cc1	2.4	0.42
CCCCN(CC)Cc1ccc(CNC(=S)Nc2ccc(C)cc2Cl)o1	0.12	0.81
Cc1cc(NC(=O)Nc2ccc(OCc3ccccc3)cc2)n(C)n1	1.5	-0.45
COc1cc(C(=O)N2CCN(CC(O)COc3ccccc3)CC2)cc(OC)c1OC (stereo not given)	0.08	0.95
Oc1oc(-c2ccco2)nc1C=Nc1ccccc1	0.23	0.67
Cc1cccc(COc2ccccc2C(=O)NC2CCC(O)CC2)c1 (stereo not given)	0.91	-0.33
CS(=O)(=O)Nc1ccccc1C(=O)NCc1ccco1	0.71	-0.07
COc1ccc(-n2cnc3cc(C(=O)NCCN4CCOCC4)ccc32)cc1	2.1	1.5
CCCOc1cccc(/C=N/NC(=O)c2csc(C)c2C)c1	0.95	-0.86
Cc1nc(NCC(c2ccccc2)N(C)C)c2c(C)c(C)sc2n1 (stereo not given)	0.14	1.9
CC(C)(C)C(=O)Cn1ncc(N2CCOCC2)c(Br)c1=O	2.5	2.7
CCCC(C)C(=O)NCc1ccncc1 (stereo not given)	2.7	2.6
O=c1[nH]c(CN2CCN(S(=O)(=O)c3cccs3)CC2)nc2c(Br)cc(Br)cc12	0.12	-0.26
COc1ccc(S(=O)(=O)N2CCCC(C(=O)O)C2)cc1Cl (stereo not given)	0.09	1.8
CCOc1ccc(C(=O)NC(C(=O)NCc2cccnc2)C(C)C)cc1 (stereo not given)	0.16	-1.4
CC(C)(C)NC(=O)NC(=O)COC(=O)COc1ccc2c(c1)CCC2	0.68	-1.8
COc1cc(CC(=O)OCC(=O)Nc2sccc2C(N)=O)cc(OC)c1OC	1.2	0.13
COc1ccc(-n2c(-c3ccc(Br)cc3)n[nH]c2=S)cc1	0.01	0.66
Cc1nn(-c2cc(N3CCCCC3)ccc2[N+](=O)[O-])c(=O)c2ccccc12	0.69	-0.51
CC(CS(=O)(=O)c1ccccc1[N+](=O)[O-])N1CCOCC1 (stereo not given)	0.02	2.4
Cc1nc(N2CCOCC2)nc(Oc2ccccc2)c1[N+](=O)[O-]	1.4	-2.6
COc1cccc(NC(=S)NC(=O)c2cccnc2)c1	0.76	-1.5
Cn1c(=O)n(Cc2ccccc2)c2ccccc21	1	0.01
Cc1cccc(NC(=S)NCC2CCCO2)c1 (stereo not given)	0.69	-0.75

(further entries)
SMILES	KCNQ2 enhance	KCNQ2 enhance baseline
Cc1ccc(NC2CCCCC2NS(=O)(=O)c2ccc(Cl)cc2)cc1 (stereo not given)	0.78	-0.07
Fc1ccc(-c2nnc(-c3ccc(F)cc3)o2)cc1	0.03	0.27
O=C1CN(CC(=O)NC(=O)NCc2ccccc2)CCN1	0.18	0.35
C=CCN1C=C/C(=C\C=C(C#N)C#N)c2ccccc21	1.7	1.1
CCCCOc1ccc(C(NC(=O)OCC)NC(=O)OCC)cc1	0.04	-0.64
COc1cc2nc(CN3CCC(Cc4ccccc4)CC3)[nH]c(=O)c2cc1OC	0.14	0.08
COc1cc2c(C#N)c(N3CCN(C)CC3)nc(N)c2c(N)n1	0.76	0
CSc1nnc(CNC(=O)C23CC4CC(CC(C4)C2)C3)n1Cc1ccccc1	1.2	-0.05
N#CCCN(C(=O)CO/N=C/c1cccc([N+](=O)[O-])c1)c1ccccc1	0.48	-0.07
COc1cnn(-c2ccc(C)cc2)c(=O)c1Br	0.34	-0.62
C/C=C\C=C/C(=O)Nc1cccc(C2=NOC3(C2)C[C@@H](C(N)=O)N(C(=O)COc2ccc(Cl)cc2)C3)c1 (stereo not given in full)	1.4	-0.82
CCN(CC)CCNC(=O)c1ccc(Cl)c(S(=O)(=O)N2CCCCCC2)c1	1.2	-0.09
COc1ccccc1CCNC(=O)C1CCC(=O)N(C2CCCCCC2)C1 (stereo not given)	1.5	0.04
CC(C)[C@H](NC(N)=O)C(=O)Nc1cccc([N+](=O)[O-])c1	0.03	-0.04
CN(C)C(=O)c1c(C(F)(F)F)nn(C)c1Cl	0.98	-0.02
CCOc1ccc(C(=O)OC2CCCN(C)C2)cc1 (stereo not given)	0.68	0.32
Cn1c(SCc2nc3ccccc3c(=O)[nH]2)nc2ccccc21	1.5	-1.2
COC(=O)c1ccc(NC(=O)CSc2nnc(C)n2CC2CCCO2)cc1 (stereo not given)	0.5	1.1
Cc1cc(C(=O)Nc2cccnc2Cl)on1	0.84	-0.26
COc1ccc(CCC(=O)N2CCN(C(=O)c3ccccc3)CC2)cc1	0.88	-1.7
Cc1ccc(S(=O)(=O)NCCC2=CCCCC2)cc1C(N)=O	1	-0.2
COc1ccccc1CN1CCNC(=O)C1CC(=O)NCCCN1CCCC1=O (stereo not given)	0.38	0.07
CCOc1ccc(OCC)c(NC(=O)c2[nH]c(C)c(C(C)=O)c2C)c1	0.08	0.03
C=C(C)C1CC=C(C)/C(=N\NC(=S)Nc2ccc(C)cc2)C1 (stereo not given)	1.9	1.1
C[C@@H]1C[C@H](O)c2cc(Cl)ccc2N1	1.3	-2.1

Some of the entries above, set out differently:
KCNQ2 enhance | KCNQ2 enhance baseline | SMILES
0.68 | -1.8 | CC(C)(C)NC(=O)NC(=O)COC(=O)COc1ccc2c(c1)CCC2
0.04 | -0.64 | CCCCOc1ccc(C(NC(=O)OCC)NC(=O)OCC)cc1
0.71 | -0.07 | CS(=O)(=O)Nc1ccccc1C(=O)NCc1ccco1
0.84 | -0.26 | Cc1cc(C(=O)Nc2cccnc2Cl)on1
0.18 | 0.35 | O=C1CN(CC(=O)NC(=O)NCc2ccccc2)CCN1
0.76 | 0 | COc1cc2c(C#N)c(N3CCN(C)CC3)nc(N)c2c(N)n1
0.48 | -0.07 | N#CCCN(C(=O)CO/N=C/c1cccc([N+](=O)[O-])c1)c1ccccc1

Part of the list above in order of heavy-atom count, highest first.
SMILES	KCNQ2 enhance	KCNQ2 enhance baseline
CCOc1ccc(OCC)c(NC(=O)c2[nH]c(C)c(C(C)=O)c2C)c1	0.08	0.03
COc1cc2c(C#N)c(N3CCN(C)CC3)nc(N)c2c(N)n1	0.76	0
CC(C)(C)C(=O)Cn1ncc(N2CCOCC2)c(Br)c1=O	2.5	2.7

Complete entries, looked up by structure. Screens in order: KCNQ2 enhance	KCNQ2 enhance baseline
Oc1oc(-c2ccco2)nc1C=Nc1ccccc1 across the screens: 0.23	0.67
Cc1ccc(S(=O)(=O)NCCC2=CCCCC2)cc1C(N)=O across the screens: 1	-0.2

(next part)
SMILES	KCNQ2 enhance	KCNQ2 enhance baseline
CCOC(=O)/C(C(C)=O)=C1\OC(=O)c2ccccc21	1.4	0.63
CC1=NN(C(=O)c2cc(C)nn2C)C(O)(C(F)(F)F)C1 (stereo not given)	6*	0.24*
Cc1cc(C)cc(NCc2cc(=O)oc3cc(C)c(O)cc23)c1	0.75	0.31
COc1ccc(Br)cc1C1N2CC3(C)CN1CC(C)(C2)C3=O (stereo not given)	0.52	0.94
COCCCNC(=S)N1CCCN(c2nc3cc(C)c(C)cc3cc2C#N)CC1	1.3	2.1
O=[N+]([O-])c1ccc(N/N=C/c2ccccc2O)cc1	7.9*	-1.3*
CCC(=O)Nc1cccc(-c2ccc(N3CCCCC3)nn2)c1	2.1	-0.24
Cc1cc(C)cc(C(=O)NCC(=O)OCC(=O)N2CCCCC2)c1	1	-0.42
Cn1c(SCC(=O)Nc2nncs2)nnc1C1CC1	1.1	-1.5
O=C(NCCCN1CCCC1=O)c1cc(NS(=O)(=O)c2ccc(F)cc2)cc(NS(=O)(=O)c2ccc(F)cc2)c1	0.02	0.57
CCCn1nc2cc(C(=O)NCc3ccccc3OC)ccc2c1OCC	0.19	-0.38
OCCC1CN(Cc2cccn2-c2cccnc2)CCN1Cc1ccccc1 (stereo not given)	1.8	-1.1
O=C(COc1ncnc2ccccc12)N1CCN(c2ccccc2)CC1	0.24	-0.77
Cc1ccc(-c2csc3nc(CSc4nnc(-c5ccc(Cl)cc5)n4C)[nH]c(=O)c23)cc1	0.92	0.85
N#Cc1nc(COc2cccc(Cl)c2)oc1NCc1ccco1	2	1.1
CCN1CCN(S(=O)(=O)c2ccc3[nH]c(=O)oc3c2)CC1	0.95	-0.22
O=C(O)/C=C/c1cn(-c2ccccc2)nc1-c1ccc(-c2ccc([N+](=O)[O-])cc2)o1	1	0.45
CC(C)c1ccc(NC(=O)C2CC(=O)N=C(N)S2)cc1 (stereo not given)	1.1	0.64
CC1(C)CC(=O)C2=C(C1)Nc1cc(C(=O)c3ccccc3)ccc1NC2c1ccccn1 (stereo not given)	0.35	1.2
S=c1nc[nH]c2c1cnn2-c1ccccc1	10*	-0.4*
CCOC(=O)CN(C(=O)CNC(=O)c1ccco1)C(C(=O)NC1CCCCC1)c1cccnc1 (stereo not given)	0.04	0.72
CCOC(=O)c1c(-c2ccc(OC)cc2)csc1NC(=O)CCN1CCOCC1	0.03	-2.2
Cc1ccc(N=C2NC(=O)/C(=C/c3cccs3)S2)cc1C	2.3	1
Cc1ccccc1C(=O)N1CCC(C(=O)Nc2ccc(C(C)C)cc2)CC1	0.59	-0.19
CN(C(=O)CSc1nnc(Cc2ccccc2F)n1N)C1CCS(=O)(=O)C1 (stereo not given)	0.53	0.3

More structures follow:
SMILES	KCNQ2 enhance	KCNQ2 enhance baseline
Cc1ccc(S(=O)(=O)N2CCN(C(=O)NCc3ccc(F)cc3)CC2)c(C)c1	0.52	-2.9
CCOc1ccc(N(CC(=O)NCc2ccccc2Cl)S(=O)(=O)c2c(C)noc2C)cc1	0.28	1.4
Cc1ccc(-c2cc(C(=O)OCC(=O)N(C)c3c(N)n(Cc4ccccc4)c(=O)[nH]c3=O)c3ccccc3n2)o1	0.16	-0.18
Cc1ccc(S(=O)(=O)N2CCCC(NC(=O)N3CCN(c4ccccc4)CC3)C2)cc1 (stereo not given)	0.23	0.01
COc1ccc(-n2cnnc2SCC(=O)NCc2cccs2)cc1	0.08	1.3
Cc1nc(C(=O)N2CCC(n3nccc3NC(=O)Nc3ccccc3Cl)CC2)cs1	0.42	1.4
COc1cc(NS(=O)(=O)c2cc3[nH]c(=O)c(=O)[nH]c3cc2C)cc(OC)c1OC	0.97	-1.4
COc1ccc(OC)c(CNC(=O)c2ccc(C)c(NC(=O)C3=C(C)OCCS3)c2)c1	1.4	0.03
COc1ccc(C2C(C(=O)N3CCCCC3)CC(=O)N2c2ccc(OC)cc2)cc1 (stereo not given)	0.42	-0.46
Cc1ccc(OCc2ccc(C(=O)Nc3nc4ccccc4n3Cc3ccccc3)o2)c([N+](=O)[O-])c1	0.78	-1.7
Cc1nn(CC(=O)O)c(C)c1[N+](=O)[O-]	0.46	-0.02
C=CCSc1nnc2c(n1)OC=Nc1ccc(Br)cc1-2	0.3	-2.3
O=C(NC1CC1)C1CC(=O)N(C2CCCCC2)C1 (stereo not given)	1.2	-2.2
Cc1nnsc1NC(=O)OCc1ccc(C(F)(F)F)cc1	0.03	-0.56
CC(=O)N1CCN(c2ccc(NC(=O)c3ccc(C(C)(C)C)cc3)cc2)CC1	0.15	-1.5
CC(C)Cc1nnc(NC(=O)CCC(=O)Nc2ccc(Cl)cc2)s1	0.05	-0.25
Cc1c(NC(=O)c2cnn3c2NC(c2ccccc2)CC3C(F)(F)F)c(=O)n(-c2ccccc2)n1C (stereo not given)	1.9	-0.03
O=C(NC(=S)NCC1CCCO1)c1cccs1 (stereo not given)	0.27	-2
CC1=Nc2cc(C(=O)NCCCOC(C)C)ccc2Sc2ccc(C)cc21	0.1	1.3
C=CCn1c(=O)c2c(nc3n2CC(C)CN3CCc2ccccc2)n(C)c1=O (stereo not given)	1.4	-0.68
O=C(CCCCCN1C(=O)c2ccccc2C1=O)NCc1ccccn1	0.41	-0.31
Cc1ccc(S(=O)(=O)NC(C)C(c2cccs2)N2CCN(c3ccccc3)CC2)cc1 (stereo not given)	0.06	-1.7
CC(C)(C)Sc1ccc([N+](=O)[O-])cc1C(=O)Nc1ccncc1	2.6	1
O=C(Cn1nnc(-c2ccc(OCc3ccccc3F)cc2)n1)N1CCOCC1	1.5	-1.1
CN(C(=O)Cn1cccc1C1=NC(c2ccccc2)CO1)c1ccccc1 (stereo not given)	0.86	-1

(list continues)
SMILES	KCNQ2 enhance	KCNQ2 enhance baseline
O=C1c2ccccc2C(=O)c2[nH]c(=O)[nH]c21	0.04	-1.4
Cc1nc(C)c(-c2csc(Nc3ccc(N)cc3)n2)s1	0.27	1.1
O=C(/C=C/c1ccccc1)Nc1ccc2c(c1)OCCO2	1.1	-0.83
CN(Cc1ccco1)C(=O)C1CCN(c2nnc(-n3cccc3)s2)CC1	0.73	0.03
NC(=O)C1CCN(C2OC(=O)c3ccccc32)CC1 (stereo not given)	0.79	0.03
COc1ccc(Cn2nnc3ccccc32)cc1	0.26	0.01
COCc1nnc(NC(=O)c2sc3ccccc3c2Cl)s1	0.26	0.91
CC(C)Cc1nnc(NC(=O)CCC(=O)NC2CCCCC2)s1	1.2	0.41
CCOc1ccccc1NC(=O)NC1(C(=O)N2CCN3CCCC3C2)CCCCC1 (stereo not given)	21*	1*
CN(CC(=O)OCC(=O)c1c(N)n(C)c(=O)n(C)c1=O)S(=O)(=O)c1ccc(Cl)cc1	1.5	0.14
CN(c1ccccc1C(=O)Nc1cccc(C(F)(F)F)c1)S(C)(=O)=O	1.1	-0.82
CC1CCN(c2ccc(-c3cccc(NC(=O)c4ccco4)c3)nn2)CC1	2	-0.1
CC(=O)c1ccc(NS(=O)(=O)c2cccc(C)c2)cc1	0.35	0.99
[O-]/[N+](=C\C=C\c1ccccc1)c1ccccc1	0.03	0.17
Cc1n[nH]c(=O)n1-c1ccc(C(C)C)cc1	0.69	1.1

These rows are one share of the data; rates above refer to the full screens.
